CapD inh: CapD enzyme inhibition; purified CapD enzyme, fluorescence intensity read-out; hits give low values; some hits fall short of the stated cut; z-score (concentration not given with the values); 140,000 compounds, 0.23% hits; AID 492967;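 active means z-score under -4 in either of two replicates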;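 further: stock transfer was 100 nL into about 40 µL; score is relative to mean and spread of the plate; one replicate is shown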
AID504770: E. coli YBA685 growth inhibition, screen for V. cholerae RctB inhibitors | E. coli YBA685 rctB-dependent plasmid, OD600 growth, 3 h; hits give low values | z-score (concentration not given with the values) | 130,000 compounds, 0.27% hits | AID 504770;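 active means z-score under -2 on both plates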;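 further: wells of about 30 µL received 100 nL stock; score is relative to mean and SD of the test wells; the first replicate is given; strong numbers were not always called active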
An asterisk follows results filed as active; nt = no result given.

SMILES	CapD inh	AID504770
O=C(NC12CC3CC(CC(C3)C1)C2)N1CCC(O)(c2ccc3c(c2)OCO3)CC1	nt	-0.2
CCOc1ccc(Nc2cc(N3CCCCCC3)c3nonc3c2[N+](=O)[O-])cc1	0.475	nt
O=C(/C=C/c1ccccc1)ON1C(=O)CCC1=O	-2.38	0.65
COc1ccccc1NC(=O)C(C)Nc1ccc(C)c(Cl)c1 (stereo not drawn)	nt	-0.45
O=C(Nc1c(-c2cccs2)nc2ncccn12)c1ccco1	29.7	0
Cc1ccccc1C(=O)N1CCCCC1CO (stereo not drawn)	0.855	0.2
O=C1C2C3C=CC(C3)C2C(=O)N1c1ccc(F)c(F)c1 (stereo not drawn)	-0.03	nt
CCC(=O)NCC(c1ccc2c(c1)OCO2)N1CCOCC1 (stereo not drawn)	nt	-0.5
CCOC(=O)N1CCN(C(=O)C2CC(c3ccc(F)cc3)=NO2)CC1 (stereo not drawn)	0.345	0.55
C=C(C)C(=O)OCc1ccc(C#N)cc1	nt	-0.55
O=C(Nc1ccncc1)c1ccc(N2CC3CC(C2)c2cccc(=O)n2C3)c(NC(=O)c2cc3ccccc3oc2=O)c1 (stereo not drawn)	0.12	nt
CN(C)C(=O)CSc1nnc(-c2ccccc2)n1-c1ccc(F)cc1	0.08	0.6
COc1ccc(S(=O)(=O)NCCN2CCNC2=O)cc1OC	0.815	1.05
COc1ccc(OC)c(CCN=C2NS(=O)(=O)C(c3ccc(C)cc3)=C2C)c1	0.195	-0.05
O=S(=O)(NCC1CCN(CCc2cccs2)CC1)c1cnc[nH]1	-0.425	-0.8
COc1ccc(S(=O)c2ccccc2C(=O)O)cc1 (stereo not drawn)	0.375	-0.4
Cc1ccccc1NC(C)C(=O)N/N=C/c1cccs1 (stereo not drawn)	-0.44	-0.55
N#Cc1cc(SCCC(=O)O)c(N2CCOCC2)cc1C#N	-1.52	-0.5
FC(F)Sc1nc2ccccc2s1	nt	-1.55
NC(=S)C1COc2ccccc2O1 (stereo not drawn)	-0.575	nt
CN(CC(=O)NC1CCCCCC1)S(=O)(=O)c1ccc2c(c1)c(=O)n(C)c(=O)n2C	0.255	-0.35
Cc1cc(C(F)(F)F)n2nc(N)nc2n1	nt	0.2
CCOC(=O)c1c(NC(=O)c2cc(S(=O)(=O)C(C)C)c(SC)s2)sc(C)c1C	-0.32	-0.2
CC1=CC(=C(C#N)C#N)C=C(C)N1C(C)C	nt	0.25
Cc1cc2c(=O)n(CCOc3ccccc3)cnc2s1	-0.41	0.4
Cc1ccc(Cl)cc1NC(C#N)c1ccccc1 (stereo not drawn)	-0.54	2.1
O=C(CN1CCOCC1)N1N=C(c2c(-c3ccccc3)c3cc(Cl)ccc3[nH]c2=O)CC1c1ccccc1Cl (stereo not drawn)	-0.24	nt
CC(C)CCOc1ccc(C(=O)CCNC(Cc2c[nH]c3ccccc23)C(=O)O)cc1 (stereo not drawn)	-0.435	nt
O=C1CSc2ccc(C(=O)NCCC3=CCCCC3)cc2N1	58.9	-0.15
O=C(Nc1ccc(-c2nc3cc(Cl)ccc3o2)cc1)c1cc([N+](=O)[O-])ccc1Br	3.29	nt
O/N=C1/C2C3CC4C5C3C1C5C1(OCCO1)C42 (stereo not drawn)	nt	-0.25
O=C(/C=C/c1ccco1)CC1(O)C(=O)Nc2ccccc21 (stereo not drawn)	nt	-0.65
CC(C)NC(=O)CCCN1C(=O)c2ccccc2Sc2ncccc21	0.56	-0.5
Cc1cccnc1-n1c(C)nc2ccccc2c1=O	nt	-0.45
COC(=O)C1=C(C)NC2=C(C(=O)CC(c3ccc(OC)c(OC)c3)C2)C1c1ccc(OC)c(OC)c1 (stereo not drawn)	11.9	nt
COc1ccc(C(=O)NC(c2ccccc2OC)c2cc(Cl)c3cccnc3c2O)cc1 (stereo not drawn)	-0.29	nt
O=C(NCc1cc(F)cc2c1OCOC2)c1ccc(Oc2cc(Cl)cc(Cl)c2)o1	-0.795	-0.3
COc1ccc(C2=NC(C(F)(F)F)(C(F)(F)F)N=C(N3CCCCC3)O2)cc1	-0.09	nt
CC(C)COc1ccc(Br)cc1C(=O)O	-0.585	-0.55
O=C(O)C1CC(c2ccc(F)cc2)=NO1 (stereo not drawn)	-2.72	-0.65
CCOc1cc(CNC2CC2)ccc1OC(F)F	nt	-0.6
CCOC(=O)c1cccc2c1-c1ccccc1C2=O	-0.035	0.95
COCCCNc1c2c3c(cccc3n(C)c1=O)C(=O)c1ccccc1-2	-1.01	nt
CC(=O)N1CCCc2cc(S(=O)(=O)Nc3ccc4c(c3)OCO4)ccc21	-0.225	2.45
Cc1ccc(CNC(=O)CCc2c(C)nc3c(c2C)c(=O)n(C)c(=O)n3C)cc1	0.4	1.5
CC(NC(=O)c1ccncc1)C1CC2CCC1C2 (stereo not drawn)	nt	3.2
Cc1cc(NC(=O)CC2CCCCC2)nc2c1c(=O)oc1ccccc12	0.065	-0.9
O=c1[nH]c2nc(-c3ccccc3)cn2[nH]c1=O	-0.12	nt
CSc1ccc(/C=C2\CC/C(=C\c3ccc(SC)cc3)C2=O)cc1	0.89	0.35
N#CCCC1(CCC#N)S(=O)(=O)CC(c2ccccc2)CS1(=O)=O	nt	-0.65
Following part.
SMILES	CapD inh	AID504770
CC1CCN(c2cc(N3CCN(C(=O)c4ccccc4)CC3)c([N+](=O)[O-])cc2F)CC1	-1.73	nt
CCOC(=O)CN1C(=O)C(C(C)C)Oc2c(C(C)C)cccc21 (stereo not drawn)	-0.01	-0.2
C=CCNc1oc(Cc2cccc3ccccc23)nc1C#N	-0.06	0.95
O=c1c(-c2ccn[nH]2)cnc2sc3ccccc3n12	21.3	-1.25
CSc1nc(/C=N/O)ccc1C#N	16.6	-0.7
CS(=O)(=O)N1CCN(c2ccc(N)cc2)CC1	0.09	1.45
CC1CCN(Cc2ccccc2CO)CC1	-1.44	2.3
CC(=O)OCCn1nc(C)c2ccccc2c1=O	-0.22	-0.5
CC(C)C(C(=O)O)N1C(=O)/C(=C/C=C/c2ccco2)SC1=S (stereo not drawn)	nt	2.85
O=C(Nc1ccccc1)c1ccc(CSc2ccc(C(F)(F)F)cn2)o1	-0.59	1.55
O=C1CN(c2ccccc2)C(=O)CN1c1ccccc1	1.15	-0.5
CC(C)(C)C(=O)/C=c1\[nH]c(=O)/c(=C\c2cccs2)s1	nt	0.2
NC(=O)c1ccccc1NC(=O)CCC(=O)O	9.2	-0.15
Cc1ccc(S(=O)(=O)N(CC(O)CN2CCCC2)c2ccccc2)cc1 (stereo not drawn)	-0.045	nt
CCCN(CCC)C1=CC(=O)C(C)=C(C)C1=O	nt	0
NCC1OC(COC[C@@H]2C(O)[C@H](OC3C(O)C(N)CC(N)C3OC3OC(CN)C(O)C(O)C3N)O[C@@H]2CO)C(N)C(O)C1O (stereo partly drawn)	-0.335	nt
O=C(Nc1ccc(-c2cn3c(n2)SCC3)cc1)c1ccc2c(c1)OCO2	nt	0.45
CCNc1nc(NC(C)C)nc(SCCOc2ccc(C)cc2)n1	-1.27	nt
Cc1cccnc1NC(=O)C(F)(F)F	1.93	0.7
CC1C(C)C(OC(=O)CCl)(c2ccccc2)CCN1C (stereo not drawn)	0.08	nt
CN1CCN(CC2(O)CCN(S(=O)(=O)c3ccc(Cl)cc3)CC2)CC1	-0.17	nt
O=C(N/C(=C/c1cccs1)C(=O)N1CCCC1)c1ccccc1	-2.02	-0.6
Cc1c(C(=O)OCCN2CCOCC2)oc2ccccc12	0.13	-0.9
CC1=C(C(=O)Nc2ccccc2C)C(c2ccco2)C(C#N)=C(SCC(=O)Nc2cccc(Cl)c2C)N1 (stereo not drawn)	-0.33	nt
CCN(CC)Cc1ccc(C(=O)NCc2ccc(Cl)cc2)o1	nt	-0.15
CC1=C(C#N)C(=O)N(CCc2ccccc2)C(=O)/C1=C\c1ccc(-c2ccccc2)o1	-0.86	1.45
NS(=O)(=O)c1ccc(NC(NC(=O)c2ccco2)C(=O)c2ccc(Cl)cc2)cc1 (stereo not drawn)	nt	-0.1
COc1nc(NCC(C)C)nc(Oc2ccc(=O)n(-c3ccccc3)n2)n1	0	0.4
Clc1ccc(-c2ccnc(Sc3cc(Cl)ccc3Cl)n2)cc1	-0.275	nt
COC(=O)C1C(c2ccc(OC)c(OC)c2)C(C(=O)OC)S(=O)(=O)CS1(=O)=O (stereo not drawn)	nt	1.8
CCOc1ccc(C(=O)Nc2ccc(S(=O)(=O)N3CCCCC3c3cccnc3)cc2)cc1OCC (stereo not drawn)	-0.2	nt
CC1CCCCC1NC(=O)COC(=O)c1ccc(Cl)c(S(N)(=O)=O)c1 (stereo not drawn)	nt	-3.05*
N#Cc1ccc(Cl)cc1N=Cc1cccs1	-0.42	-0.85
Cc1ccc(CCNC(=O)C(C)N2C(=O)CC(C)(C)Sc3ccccc32)cc1 (stereo not drawn)	-0.67	2.05
CC(=O)Oc1c(Br)cc2oc(=O)sc2c1Br	-0.24	0.5
COC(=O)c1cc(Br)c(NC(=O)c2cccs2)cc1OC	-0.57	nt
CC1CC(C)CN(CCCNC(=O)c2ccc3c(c2)N(C)CCS3)C1 (stereo not drawn)	22.3	0.25
COc1ccc([N+](=O)[O-])cc1C1=N/C(=C\c2ccc(OC)c(OC)c2OC)C(=O)O1	-0.335	nt
COCCc1nnc(N)s1	nt	0.7
COc1ccc(C2(O)CN(c3ccc(Br)cc3)C3=[N+]2CCCS3)cc1OC (stereo not drawn)	0.745	nt
CN(C)Cc1cc(O)c(CN(C)C)cc1O	-0.405	nt
COc1ccc(C(=O)Nn2c(SCC(=O)NC3CCCCC3)nc3ccccc3c2=O)cc1	0.63	nt
CC(C)Cn1c(COc2ccccc2)nc2ccccc21	-0.07	1.6
N#Cc1c2ccc(OCC(N)=O)cc2n2ccccc12	-0.3	0.5
Cc1[nH]n(-c2ccccc2)c(=O)c1C(c1ccccc1[N+](=O)[O-])c1c(C)[nH]n(-c2ccccc2)c1=O	-0.31	nt
O=C(Nc1nc(-c2ccccc2)cs1)C1CCC1	nt	-0.05
Cn1ccc(-c2cc(C(=O)O)c3ccccc3n2)n1	nt	-0.6
CCCN(CCC)C(=O)CCn1c(=O)oc2ccccc21	-0.305	1.25
CCCSc1nnc2c3ccccc3n(CC)c2n1	0.19	0.1
CC1(C)CC(=O)c2c(SCCOC(=O)c3ccccc3Cl)sc(C#N)c2C1	-0.12	-1.3
Additional records
SMILES	CapD inh	AID504770
Cc1ccc(SCC#N)cc1C	nt	-0.25
CCOC(=O)C1CCN(C(=O)c2ccc3c(c2)CCCN3S(C)(=O)=O)CC1	-0.13	-0.65
CC1=CC(=O)C2(C)C3CCC4CC(=O)CCC4(C)C3=CCC2S1(=O)=O (stereo not drawn)	0.425	0
CN(C)Cc1cc(C(C)(C)C)cc(CN(C)C)c1O	-0.39	1.05
Cc1cccc2cc(CN(CC3CCCO3)C(=O)CC(C)(C)C)c3nnnn3c12 (stereo not drawn)	nt	-0.15
O=c1oc2ccccc2cc1-c1cn2cc(Cc3cccc(C(F)(F)F)c3)sc2n1	-0.28	0.05
O=C(CCC(=O)NC(Cc1ccccc1)C(=O)NNC(=O)OCc1ccccc1)Nc1ccc(Br)cn1 (stereo not drawn)	-0.485	nt
C=C(C)c1c2c(c(Cl)c3ccccc13)C[N+](CC)(CC)C2	-0.37	0.85
COc1cc(OC)nc(C(=O)N2CCN(c3ccc(F)cc3)CC2)n1	-0.2	nt
CC(C)SCc1nc2ccccc2[nH]1	-0.01	-0.4
CC(=O)Nc1ccc2c(c1)nc(CN1CCCC1)n2C	-0.54	-0.85
CCCc1ccc(-c2ccc(C#N)cc2)nc1	1.01	-0.6
O=c1[nH]c(SCc2ccccc2)nc2nc[nH]c12	1.48	-0.2
COc1ccc2[nH]c(=O)c(CN(Cc3cccnc3)C(=O)Nc3ccccc3)cc2c1	nt	0.45
CSc1cccc(NC(=O)CSc2ccc(C)cc2)c1	-0.41	0.5
CCn1c2ccccc2c2cc(/C=N/NC(=O)Cc3cccs3)ccc21	nt	0.25
CN(C)S(=O)(=O)c1ccc(C(=O)Nc2sccc2C#N)cc1	-0.145	-0.55
Cc1ccc(C2C3=C(CC(C)(C)CC3=O)NC3=C2C(=O)c2ccccc23)cc1 (stereo not drawn)	-0.26	0.8
CCOc1ccc(NC(=O)c2cc(S(=O)(=O)N3CCN(c4cccc(Cl)c4)CC3)ccc2F)cc1	0.13	nt
COC(=O)c1ccc(NC(C)=O)cc1	0.47	-0.3

High-throughput results from PubChem.

These rows are one share of the data; count on the stated rates, not on these rows.
